GALR2 agonist = agonists of human galanin receptor 2 (GALR2). O43603. GALR2-expressing cells, agonist activation read-out. activation, %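 (tested at 5 µM)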. actives 0.48% (n = 140,000). AID 803;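 active = above mean plus 3 SD of all compounds, about 5% in these data, not always enough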;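 note: 0% = vehicle buffer wells and 100% = reference agonist at full effect; tested in CHO reporter cells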
Target sequence (O43603 whole entry, looked up): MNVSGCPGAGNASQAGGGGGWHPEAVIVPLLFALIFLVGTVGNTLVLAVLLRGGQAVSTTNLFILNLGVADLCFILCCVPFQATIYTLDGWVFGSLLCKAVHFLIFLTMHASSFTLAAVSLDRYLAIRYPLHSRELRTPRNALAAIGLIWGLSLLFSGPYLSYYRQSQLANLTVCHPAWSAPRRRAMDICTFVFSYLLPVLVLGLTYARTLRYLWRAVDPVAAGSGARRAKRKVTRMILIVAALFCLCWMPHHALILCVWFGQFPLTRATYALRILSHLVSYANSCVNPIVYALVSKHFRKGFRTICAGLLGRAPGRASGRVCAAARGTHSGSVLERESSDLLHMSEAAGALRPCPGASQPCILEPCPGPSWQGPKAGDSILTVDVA
HSV augment = HSV replication enhancement; HSV replication augmentation in cells, fold increase; maximum fold increase; actives 0.005% (n = 220,000); AID 1956;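 active = peak rise of 1.5-fold or more in the series; tested in PC3 cells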;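 note: first round at 10 µM; read as green reporter fluorescence; hits show the peak of a series up to 25 µM; 1 = signal of infected wells without compound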
RGS16-Gao HTS = modulates binding between human RGS16 and Galphao; actives 0.38% (n = 220,000); O15492+P09471; bead-based flow cytometry RGS16-Galphao binding, fluorescence; actives lie on both sides; binding response (% of control), % at 10 µM; AID 1441;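 active = below 25% or above 175%, edge rows of some plates excepted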;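 note: Galphao activated by GDP with aluminum fluoride before binding; 100% = wells without compound and 0% = beads without RGS; some results beyond the cut were filed as inactive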
Target sequence (O15492 whole entry, looked up): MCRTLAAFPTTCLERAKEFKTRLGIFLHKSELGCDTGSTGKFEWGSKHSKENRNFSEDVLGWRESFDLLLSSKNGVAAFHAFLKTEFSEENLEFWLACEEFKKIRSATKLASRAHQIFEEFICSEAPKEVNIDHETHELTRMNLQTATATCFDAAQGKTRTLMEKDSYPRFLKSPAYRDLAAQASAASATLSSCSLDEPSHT
Target sequence (P09471 whole entry, looked up): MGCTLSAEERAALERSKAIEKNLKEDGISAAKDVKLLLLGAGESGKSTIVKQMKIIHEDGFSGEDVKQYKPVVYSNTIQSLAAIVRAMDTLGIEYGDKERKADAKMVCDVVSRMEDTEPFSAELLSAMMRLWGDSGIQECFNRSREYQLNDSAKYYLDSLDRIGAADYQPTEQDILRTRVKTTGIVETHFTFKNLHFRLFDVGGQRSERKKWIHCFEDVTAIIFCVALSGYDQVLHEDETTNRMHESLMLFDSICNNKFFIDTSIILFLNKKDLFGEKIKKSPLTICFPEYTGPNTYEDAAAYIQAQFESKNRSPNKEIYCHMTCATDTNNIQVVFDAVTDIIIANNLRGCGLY
Insulin prom inh = TRM-6 insulin promoter activity inhibition; TRM-6 cells (human fetal islet line), insulin promoter-eGFP reporter, imaging; reporter expression induced with tamoxifen; inhibition, % at 2 µM; actives 0.9% (n = 130,000); AID 1273;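 active = inhibition above the mean plus 3 SD, with well images judged a real hit on visual review, cut at about 60% in these data, passing the limit was not always enough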
PKD1 kinase inh = inhibitors of human PKD1 kinase | Q15139 | PKD1 kinase fluorescence polarization assay | inhibition, %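 (about 10 µM by stock and volumes)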 | actives 0.056% (n = 200,000);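 active = inhibition of 50% or more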;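 note: controls were vehicle for no effect and a reference inhibitor for full effect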
Insulin prom inh cell count = further read-out of Insulin prom inh, marked with its call; normalized cell count, %; measured here: cell count, toxicity; reference of the scale not given here;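 cells exposed to compound for 48 h; stained nuclei by imaging scaled within each plate; lower means fewer cells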
HSV augment primary fold = also measured in HSV augment; calls as there; fold increase; compound at 10 µM; measured here: primary screen fold increase 10 uM; tested in PC3 cells;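 GFP signal in the first replicate; 1 = infected wells without compound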
Starred values were filed as active, the others as inactive.

Screening CCN(CC)CCN(C(=O)c1ccc([N+](=O)[O-])cc1)c1nc2ccc(OC)cc2s1 returned HSV augment inactive, RGS16-Gao HTS 96.1, Insulin prom inh -5.6, PKD1 kinase inh -8.1, Insulin prom inh cell count 138.7 and HSV augment primary fold 1.02.
Screening CC(C)C[C@H](NC(=O)[C@@H]1Cc2ccccc2CN1C(=O)OC(C)(C)C)C(=O)NCC1CCC(C(=O)O)CC1 (stereo partly specified) returned HSV augment inactive, RGS16-Gao HTS 99.8 and HSV augment primary fold 0.92.
Screening CCOc1ccccc1N(C(C)=O)S(=O)(=O)c1ccc(Cl)cc1 returned HSV augment inactive, RGS16-Gao HTS 102.9, PKD1 kinase inh 3.5 and HSV augment primary fold 0.98.
COCCCn1c(SCC(=O)NC(C)C)nnc1-c1ccccc1 was read as GALR2 agonist -3.2, HSV augment inactive, RGS16-Gao HTS 101.5, PKD1 kinase inh 0.5 and HSV augment primary fold 1.06.
CC(=O)N=C1SC2CS(=O)(=O)CC2N1c1cccc(Cl)c1Cl (stereo unspecified) was read as GALR2 agonist -1.3, HSV augment inactive, RGS16-Gao HTS 101.0, Insulin prom inh 30.8, PKD1 kinase inh -4.2, Insulin prom inh cell count 169.2 and HSV augment primary fold 0.94.
Screening Cc1ccc(-n2cnnn2)c2cccnc12 returned GALR2 agonist -1.9, HSV augment inactive, RGS16-Gao HTS 98.6, Insulin prom inh -50.0, PKD1 kinase inh -8.8, Insulin prom inh cell count 138.5 and HSV augment primary fold 0.93.
For C#CCn1c(=NC(=O)c2ccco2)sc2cccc(Cl)c21 the results were HSV augment inactive, RGS16-Gao HTS 97.6 and HSV augment primary fold 0.9.
O=C(NN1C(=O)C2C3C=CC([C@@H]2C1=O)C31CC1)c1ccccc1 (stereo partly specified) was read as HSV augment inactive, RGS16-Gao HTS 91.0 and HSV augment primary fold 0.83.
Screening CCc1ccc(N2CC(C(=O)Nc3cc(C)on3)CC2=O)cc1 (stereo unspecified) returned HSV augment inactive, RGS16-Gao HTS 101.8, PKD1 kinase inh 3.4 and HSV augment primary fold 0.97.
For Cn1cc(CC(=O)Nc2cccc(C#N)c2)c2ccccc21 the results were GALR2 agonist -1.5, HSV augment inactive, RGS16-Gao HTS 99.7, Insulin prom inh 25.8, PKD1 kinase inh 2.6, Insulin prom inh cell count 86.2 and HSV augment primary fold 0.89.
For CN(C)C(CNC(=O)c1ccc2nc[nH]c2c1)c1ccccc1 (stereo unspecified) the results were HSV augment inactive, RGS16-Gao HTS 125.0, Insulin prom inh 36.4, PKD1 kinase inh -1.0, Insulin prom inh cell count 180.0 and HSV augment primary fold 1.
For CSc1ccccc1NC(=O)c1c(Br)cnn1C the results were GALR2 agonist -1.6, HSV augment inactive, RGS16-Gao HTS 106.9, Insulin prom inh -4.3, PKD1 kinase inh -3.6, Insulin prom inh cell count 78.9 and HSV augment primary fold 0.62.
Screening COc1ccc(CCN2CC(C(=O)NCCc3ccc(C)cc3)CC2=O)cc1OC (stereo unspecified) returned HSV augment inactive, RGS16-Gao HTS 103.4, Insulin prom inh -11.1, PKD1 kinase inh -7.4, Insulin prom inh cell count 114.1 and HSV augment primary fold 1.09.
`CCCCN(C)C(=O)CS(=O)(=O)Cc1nc(-c2cccc(OC)c2)oc1C` gave GALR2 agonist -0.3, HSV augment inactive, RGS16-Gao HTS 84.6, PKD1 kinase inh 5.7 and HSV augment primary fold 0.97.
Screening Cc1cccc(CSc2nc3c(c(-c4cccs4)c2C#N)CN(C)CC3)c1 returned GALR2 agonist 0.7, HSV augment inactive, RGS16-Gao HTS 82.1, Insulin prom inh -13.3, PKD1 kinase inh 0.0, Insulin prom inh cell count 81.7 and HSV augment primary fold 1.06.
For Cc1nn(-c2ccccc2)c(-c2ccccc2)c1C(=O)O the results were GALR2 agonist -3.0, HSV augment inactive, RGS16-Gao HTS 105.1, Insulin prom inh 50.0, PKD1 kinase inh -9.0, Insulin prom inh cell count 77.5 and HSV augment primary fold 1.
For CC1(C)CN(c2ccc(C(=O)c3ccccc3)cc2)C1=O the results were HSV augment inactive, RGS16-Gao HTS 96.8, PKD1 kinase inh 1.2 and HSV augment primary fold 0.85.
O=C(COc1ccccc1)NCC1(N2CCCCC2)CCCCC1 was read as HSV augment inactive, RGS16-Gao HTS 100.2, PKD1 kinase inh -1.8 and HSV augment primary fold 0.97.
For C[N+]1(C)CCC(=C2c3ccccc3CC(=O)c3sccc32)CC1 the results were GALR2 agonist -0.9, HSV augment inactive, RGS16-Gao HTS 92.4, Insulin prom inh -43.2, PKD1 kinase inh -2.0, Insulin prom inh cell count 31.9 and HSV augment primary fold 1.12.
For CC1CCCCN1C(=O)CSCC(=O)Nc1nc(-c2cccs2)cs1 (stereo unspecified) the results were GALR2 agonist -1.8, HSV augment inactive, RGS16-Gao HTS 111.7, PKD1 kinase inh 1.1 and HSV augment primary fold 0.85.

The last 4 entries of the section above are carried over, then new ones follow.
For CC1(C)CN(c2ccc(C(=O)c3ccccc3)cc2)C1=O the results were HSV augment inactive, RGS16-Gao HTS 96.8, PKD1 kinase inh 1.2 and HSV augment primary fold 0.85.
O=C(COc1ccccc1)NCC1(N2CCCCC2)CCCCC1 was read as HSV augment inactive, RGS16-Gao HTS 100.2, PKD1 kinase inh -1.8 and HSV augment primary fold 0.97.
For C[N+]1(C)CCC(=C2c3ccccc3CC(=O)c3sccc32)CC1 the results were GALR2 agonist -0.9, HSV augment inactive, RGS16-Gao HTS 92.4, Insulin prom inh -43.2, PKD1 kinase inh -2.0, Insulin prom inh cell count 31.9 and HSV augment primary fold 1.12.
For CC1CCCCN1C(=O)CSCC(=O)Nc1nc(-c2cccs2)cs1 (stereo unspecified) the results were GALR2 agonist -1.8, HSV augment inactive, RGS16-Gao HTS 111.7, PKD1 kinase inh 1.1 and HSV augment primary fold 0.85.
For Cc1ccc(C(=O)NC2CC3CCCC(C2)N3C(=O)NC2CCCCC2)cc1 (stereo unspecified) the results were GALR2 agonist 0.8, HSV augment inactive, RGS16-Gao HTS 104.2, Insulin prom inh -27.8, PKD1 kinase inh -0.9, Insulin prom inh cell count 131.9 and HSV augment primary fold 0.95.
For Cc1cc(C)cc(OCC(=O)Nc2nonc2NC(=O)COc2cc(C)cc(C)c2)c1 the results were GALR2 agonist 0.5, HSV augment inactive, RGS16-Gao HTS 98.2, Insulin prom inh 5.6, PKD1 kinase inh 2.9, Insulin prom inh cell count 66.7 and HSV augment primary fold 0.83.
For COC(=O)c1ccc(CNCC(=O)Nc2ccc(C(=O)OC)cc2)cc1 the results were GALR2 agonist -2.4, HSV augment inactive, RGS16-Gao HTS 79.5, Insulin prom inh -26.9, PKD1 kinase inh -9.6, Insulin prom inh cell count 52.6 and HSV augment primary fold 0.94.
Screening Cc1cc(C(=O)NNC(=S)Nc2ccccc2)nn1C returned HSV augment inactive, RGS16-Gao HTS 105.3, PKD1 kinase inh -7.5 and HSV augment primary fold 0.93.
O=C(CSCC(=O)OCC(=O)c1ccc(Br)cc1)Nc1cccc2ccccc12 was read as GALR2 agonist -1.9, HSV augment inactive, RGS16-Gao HTS 99.8, PKD1 kinase inh 12.2 and HSV augment primary fold 0.89.
`S=C(NCc1ccc(Cl)cc1)Nc1ccc(Cl)cc1Cl` gave GALR2 agonist 0.8, HSV augment inactive, RGS16-Gao HTS 100.1, PKD1 kinase inh -3.7 and HSV augment primary fold 0.98.
`Cc1ccc(CN(N=Nc2nonc2N)c2nonc2N)c(C)c1` gave GALR2 agonist -1.9, HSV augment inactive, RGS16-Gao HTS 104.4, Insulin prom inh -6.9, PKD1 kinase inh -2.2, Insulin prom inh cell count 109.5 and HSV augment primary fold 1.02.
For COc1ccc(-c2cn3c(C)c(C(=O)NCc4ccc5c(c4)OCO5)sc3n2)cc1 the results were GALR2 agonist 1.1, HSV augment inactive, PKD1 kinase inh -3.2 and HSV augment primary fold 0.9.
For CC1CCCN(C(=S)Nc2ccc(Nc3ccccc3)cc2)C1 (stereo unspecified) the results were HSV augment inactive, RGS16-Gao HTS 95.6, PKD1 kinase inh 10.0 and HSV augment primary fold 0.95.
Cc1ccccc1C1CC(c2ccc(Br)cc2)Nc2nc(N)nn21 (stereo unspecified) was read as GALR2 agonist -1.1, HSV augment inactive, RGS16-Gao HTS 102.4, PKD1 kinase inh -16.7 and HSV augment primary fold 0.86.
For CNC(=S)N/N=C/c1ccc(-c2ccc(Cl)c([N+](=O)[O-])c2)o1 the results were HSV augment inactive, RGS16-Gao HTS 96.9, PKD1 kinase inh 2.1 and HSV augment primary fold 1.02.
CC1CCCN(Cc2nc3c(c(=O)n(C)c(=O)n3C)n2Cc2c(F)cccc2Cl)C1 (stereo unspecified) was read as GALR2 agonist -0.3, HSV augment inactive, RGS16-Gao HTS 108.8, PKD1 kinase inh -2.6 and HSV augment primary fold 0.86.
Screening FC(F)(F)c1cc(-c2ccccn2)nc2cc(-c3ccccc3)nn12 returned HSV augment inactive, RGS16-Gao HTS 96.9 and HSV augment primary fold 1.14.
For c1ccc(-n2cnc3cc(NCc4ccco4)ccc32)cc1 the results were HSV augment inactive, RGS16-Gao HTS 99.8, PKD1 kinase inh 1.1 and HSV augment primary fold 0.85.
`O=[N+]([O-])c1ccccc1/C=N/n1c(C(F)(F)F)n[nH]c1=S` gave HSV augment inactive, RGS16-Gao HTS 95.7, Insulin prom inh -50.0, PKD1 kinase inh -3.1, Insulin prom inh cell count 128.3 and HSV augment primary fold 0.96.
`C=CCn1c(SCC(=O)C(C)(C)C)nnc1-c1ccccn1` gave GALR2 agonist 0.0, HSV augment inactive, RGS16-Gao HTS 104.0, Insulin prom inh -54.7, PKD1 kinase inh -3.0, Insulin prom inh cell count 83.8 and HSV augment primary fold 0.79.
Cc1cccc(C(=O)N/N=C/c2ccc[nH]2)c1 was read as GALR2 agonist -1.7, HSV augment inactive, RGS16-Gao HTS 95.7, Insulin prom inh -46.1, PKD1 kinase inh 8.7, Insulin prom inh cell count 71.3 and HSV augment primary fold 0.94.
For CCOC(=O)CSc1nnc(-c2cccs2)n1-c1ccccc1 the results were GALR2 agonist -2.2, HSV augment inactive, RGS16-Gao HTS 101.0, Insulin prom inh 42.9, PKD1 kinase inh 0.5, Insulin prom inh cell count 84.8 and HSV augment primary fold 1.04.
Screening CN(C(=O)c1ccccc1)C1(C)CCS(=O)(=O)C1 (stereo unspecified) returned GALR2 agonist 0.5, HSV augment inactive, RGS16-Gao HTS 101.3, Insulin prom inh -7.7, PKD1 kinase inh -5.7, Insulin prom inh cell count 170.0 and HSV augment primary fold 0.92.
CCc1ccc(S(=O)(=O)Nc2ccc(C)c(NS(C)(=O)=O)c2)cc1 was read as HSV augment inactive, RGS16-Gao HTS 97.0 and HSV augment primary fold 0.97.
`O=C(CCN1C(=O)C2C3C=CC(C3)C2C1=O)N1CCN(c2ccc([N+](=O)[O-])cc2)CC1` (stereo unspecified) gave HSV augment inactive, RGS16-Gao HTS 107.7, Insulin prom inh -25.0, PKD1 kinase inh 6.3, Insulin prom inh cell count 87.5 and HSV augment primary fold 0.98.
Screening CSc1nc2ccsc2c(=O)n1-c1cccnc1 returned HSV augment inactive, RGS16-Gao HTS 92.8, PKD1 kinase inh -4.8 and HSV augment primary fold 1.05.
Screening CCOC(=O)/C(C#N)=C/c1cccc(F)c1 returned HSV augment inactive, RGS16-Gao HTS 103.6, Insulin prom inh -7.1, PKD1 kinase inh 5.9, Insulin prom inh cell count 109.2 and HSV augment primary fold 1.
CCCC(=O)N1CCN(c2ccc(NC(=S)NC(=O)CC)cc2)CC1 was read as GALR2 agonist -2.1, HSV augment inactive, RGS16-Gao HTS 96.6, Insulin prom inh 26.7, PKD1 kinase inh -1.3, Insulin prom inh cell count 88.7 and HSV augment primary fold 0.86.
`COc1ccc(OC)c(/C=N/NC(=O)CCCC(=O)Nc2cccc(Br)c2)c1` gave GALR2 agonist -1.6, HSV augment inactive, RGS16-Gao HTS 83.8, Insulin prom inh -6.7, PKD1 kinase inh 1.4, Insulin prom inh cell count 113.1 and HSV augment primary fold 0.9.
`Cc1cccc(CSC2=NCCN2C(=O)c2ccc(Br)o2)c1` gave GALR2 agonist -1.3, HSV augment inactive, RGS16-Gao HTS 94.4, PKD1 kinase inh 6.2 and HSV augment primary fold 0.96.
COc1cc(C=O)ccc1OS(=O)(=O)c1ccc(NC(C)=O)cc1 was read as GALR2 agonist 0.0, HSV augment inactive, RGS16-Gao HTS 109.7, Insulin prom inh 8.3, PKD1 kinase inh 2.9, Insulin prom inh cell count 135.7 and HSV augment primary fold 0.94.
Screening CCc1ccc2nc(SCC(=O)N3CCCCC3)c(C#N)cc2c1 returned GALR2 agonist -0.6, RGS16-Gao HTS 102.2, Insulin prom inh -192.3, PKD1 kinase inh -2.2 and Insulin prom inh cell count 69.9.

Assay outcomes (PubChem)
